# PINK1 expr mod: changes PINK1 expression | PINK1 immunofluorescence, high-content cytometry, 24 h | Potency, µM (doses to about 76.6 µM), without a hit: top-dose activation (PINK1 increase), most hits filed as activators | 410,000 compounds, 0.2% hits | AID 624263; active = well fitted activation curve with a large enough effect; inconclusive = small, poorly fitted or top-dose-only effect; inactive = flat fitted curve, though single readings scatter; cell line not stated here;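 also: potency is read from the fitted curve at half-maximal effect; % of control where 0% means no effect; nearly all actives have a fitted effect of over 65% in size; a mitochondrial uncoupler was the plate control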
#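 Compound titrations (5 concentrations, 24 h) on a stable cell line; DMSO and CCCP controls. Endpoint: fixed-cell PINK1 immunofluorescence with mitochondrial, cell and nuclear markers, scanned by microplate cytometer.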
# TRPML1 agonist: human mucolipin-1 channel agonism. AID 624414. Q9GZU1. 410,000 compounds, 0.12% hits. activation, % (concentration not given with the values). TRPML1-expressing cells, Ca2+ dye fluorescence, FDSS; host cell line not named in the record; reference of the full effect not given here; in the data active = activation above about 50%; inconclusive = about 30% to 50%; inactive = below about 30%; also: 0% is about no effect; the text of the record puts the active cut at 80%
# Target sequence (Q9GZU1 whole entry, looked up): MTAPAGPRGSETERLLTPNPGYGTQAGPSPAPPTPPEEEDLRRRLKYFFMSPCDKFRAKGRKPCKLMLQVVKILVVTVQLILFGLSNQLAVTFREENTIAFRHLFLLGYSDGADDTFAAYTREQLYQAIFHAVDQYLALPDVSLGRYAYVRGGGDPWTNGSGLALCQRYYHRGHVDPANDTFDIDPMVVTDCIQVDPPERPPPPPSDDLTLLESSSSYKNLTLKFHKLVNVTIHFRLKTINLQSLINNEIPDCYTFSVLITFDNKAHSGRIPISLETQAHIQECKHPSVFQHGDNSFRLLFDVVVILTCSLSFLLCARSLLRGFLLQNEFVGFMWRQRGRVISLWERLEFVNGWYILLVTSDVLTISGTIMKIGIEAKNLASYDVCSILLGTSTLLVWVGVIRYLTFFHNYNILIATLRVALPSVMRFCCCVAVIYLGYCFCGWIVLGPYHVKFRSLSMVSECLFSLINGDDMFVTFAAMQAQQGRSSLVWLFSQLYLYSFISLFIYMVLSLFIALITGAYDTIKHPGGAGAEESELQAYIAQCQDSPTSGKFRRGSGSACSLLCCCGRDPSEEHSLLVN
#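 Tetracycline-induced TRPML1-DL cells are seeded and incubated overnight before loading with a no-wash Ca2+ dye and quencher. Agonist activity is taken from the 110 s fluorescence read following compound pin-transfer on an FDSS, before EC80 54-4 challenge.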
# Starred values were filed as active, the others as inactive. A portion of the library. The share of hits here may be higher or lower than overall.
molecule,PINK1 expr mod,TRPML1 agonist
COc1cccc(CNC(=O)CSc2c3c(nc4cc(Cl)ccc24)CCCC3)c1,0.1%,1.2
CCOC(=O)c1ccc(N2CCN(c3ccccc3OC)CC2)c(NC(=O)Nc2ccc(CC)cc2)c1,2.0%,0.3
COc1ccccc1-c1nnc(C2CCN(S(=O)(=O)c3ccc(CC(C)C)cc3)CC2)o1,2.2%,2.3
COc1ccc(C2CC(=O)c3c([nH]c(C(=O)OCc4ccccc4)c3C)C2)cc1 (stereo not drawn),6.0%,2.0
Cc1ccc(Nc2cc(C)nc(-n3nc(C)cc3C)n2)cc1,6.4%,1.8
COc1cc(C(=O)n2nc(C)c(Sc3ccc(Cl)cc3)c2C)cc(OC)c1OC,2.1%,0.3
COC(=O)c1ccccc1NC(=O)c1oc2ccc3c(c2c1C)C(=O)CC(C)(C)O3,1.6%,0.1
COc1ccccc1CNc1cc(C)nc2nc(-c3ccc(C)cc3)nn12,8.5%,2.4
Cc1ccc2nc(-c3ccc(Cl)cc3)cc(C(=O)OCC(=O)c3ccccc3)c2c1,-1.6%,-0.8
CC(C)N1C(=O)C(O)(c2c[nH]c3ccccc23)c2ccccc21 (stereo not drawn),-0.3%,0.4
CCOC(=O)c1c(C)[nH]c(C)c1S(=O)(=O)N1CCC(C(=O)N2CCN(c3ccccc3F)CC2)CC1,0.3%,-0.9
CCOC(=O)C1CCCN(C(=O)c2cc3c(=O)n(C)c4ccccc4c3s2)C1 (stereo not drawn),-1.1%,0.5
Cc1ccc(NS(=O)(=O)c2cc3[nH]c(=O)c(=O)[nH]c3cc2C)cc1N(C)C,2.8%,3.7
CCOC(=O)c1cccc(Nc2ccc3cc(S(=O)(=O)N4CCCCC4)ccc3n2)c1,19%,1.3
COc1ccc(N2C(=O)C(CC(=O)Nc3ccc(F)cc3)N(CCC3=CCCCC3)C2=O)cc1 (stereo not drawn),2.0%,1.4
COc1ccc(CNC(=O)C(=O)Nc2cccc(C)c2C)cc1,9.7%,0.5
Cc1ccccc1NC(=O)Cn1c(=O)n(CCCCCC(=O)NCc2ccc3c(c2)OCO3)c(=O)c2sccc21,2.5%,0.6
CCN1CCN(c2c(S(=O)(=O)c3ccc(Cl)cc3)cnc3ccccc23)CC1,-0.4%,0.2
O=C(CCS(=O)(=O)c1cc2c(cc1Cl)NC(=O)CO2)NCCc1ccc(Cl)cc1,2.7%,0.9
CCc1ccc(CNC(=O)CCc2c(C)nn(-c3ccc(N4CCCC4)nn3)c2C)cc1,3.1%,-0.2
Cc1ccccc1Cn1cnc2nc3c(cc2c1=O)CC(C)CC3 (stereo not drawn),0.6%,-1.2
Cc1ccc2onc(CC(=O)N3CCN(c4cccc(C)c4C)CC3)c2c1,-0.4%,3.2
O=C(C1COc2cc(S(=O)(=O)Nc3ccc(Cl)cc3)ccc2O1)N1CCCC1 (stereo not drawn),-1.0%,6.2
Cc1cccc(C(=O)N2CCc3cc(CNS(=O)(=O)c4ccc(Cl)s4)ccc32)c1,4.2%,0.3
CSc1ccc(CNC(=O)c2cc3cc(S(=O)(=O)N4CCCCC4)ccc3n2C)cc1,0.7%,2.2
CC(C)CN(CC(C)C)C(=O)C1CCCN(S(=O)(=O)c2ccc3c(c2)oc(=O)n3C)C1 (stereo not drawn),3.8%,-0.9
CCn1c(CN2CCN(c3cccc(Cl)c3)CC2)nc2c1c(=O)[nH]c(=O)n2C,4.1%,-0.5
CCCCNc1ccc(/C=C2\C=Cc3ccccc32)cc1,0.8%,-0.2
Cc1ccc(NC(=O)Cn2c(=O)c(CNc3ccccc3)cc3cc4c(cc32)OCCO4)cc1,-1.0%,3.7
COc1ccc(C2=CC(c3ccc(N(C)C)cc3)n3nnnc3N2)cc1 (stereo not drawn),-0.7%,3.3

# Sorted by the number under PINK1 expr mod (falling): three of the compounds above
structure	PINK1 expr mod
COc1ccccc1CNc1cc(C)nc2nc(-c3ccc(C)cc3)nn12	8.5%
O=C(CCS(=O)(=O)c1cc2c(cc1Cl)NC(=O)CO2)NCCc1ccc(Cl)cc1	2.7%
COc1ccc(N2C(=O)C(CC(=O)Nc3ccc(F)cc3)N(CCC3=CCCCC3)C2=O)cc1 (stereo not drawn)	2.0%

# Retrieved by structure from the list above (3):
molecule,PINK1 expr mod,TRPML1 agonist
COc1ccc(N2C(=O)C(CC(=O)Nc3ccc(F)cc3)N(CCC3=CCCCC3)C2=O)cc1 (stereo not drawn),2.0%,1.4
Cc1ccc2onc(CC(=O)N3CCN(c4cccc(C)c4C)CC3)c2c1,-0.4%,3.2
COc1cccc(CNC(=O)CSc2c3c(nc4cc(Cl)ccc24)CCCC3)c1,0.1%,1.2

# More entries follow:
molecule,PINK1 expr mod,TRPML1 agonist
Cc1ccccc1OCC(=O)Nc1nnc(S(=O)(=O)N2CCCCCC2)s1,-0.5%,-0.1
CCN(CCCNC(=O)c1cc2cc3ccc(OC)cc3nc2s1)c1cccc(C)c1,-0.2%,-0.7
Cc1ccc(CN(C(=O)c2ccccc2)c2ccccn2)o1,-0.3%,0.0
COCC(C)NC(=O)C1=CC(c2ccc3c(c2)OCO3)=NS(=O)(=O)N1C (stereo not drawn),-0.2%,2.8
Cc1nc2c(C(=O)NCCc3ccccc3)c[nH]n2c(=O)c1Cc1ccc(F)cc1Cl,2.0%,-0.4
O=C(NCC(c1ccc2c(c1)OCO2)N1CCOCC1)c1cccc(Cl)c1 (stereo not drawn),-1.0%,0.7
CC(=O)c1ccc(NC(=O)C2CCCN(S(=O)(=O)c3ccc(Br)s3)C2)cc1 (stereo not drawn),3.3%,3.8
O=C(NCc1ccccc1Cl)NCc1noc2ccccc12,-1.4%,1.7
Cc1ccc(-c2nn(CC(=O)NC3CCCC3)c3c2cnc2ccc(F)cc23)cc1C,1.8%,-0.1
O=c1c2cnn(-c3ccc(F)cc3)c2ncn1Cc1ccccc1Cl,-1.0%,0.8
Nc1c(-c2nc(-c3ccc(F)cc3)cs2)c2ccccn2c1C(=O)c1ccc2c(c1)OCO2,1.7%,1.0
Cc1cccc(N2C(=O)C(CC(=O)Nc3cccc(F)c3)N(Cc3cccs3)C2=O)c1 (stereo not drawn),0.5%,1.2
CCN(C(=O)Cn1cnc2c1c(=O)n(C)c(=O)n2C)c1ccccc1C,-1.2%,-0.1
Cn1ccc2c(OCC(=O)Nc3ccc([N+](=O)[O-])cc3)cccc2c1=O,0.7%,1.2
O=C(CCSCCc1ccccn1)Nc1ccc(Cl)cc1,0.5%,-0.1
CCc1ccc(CN2CCc3nc(Nc4ccccc4)ncc3C2)cc1,7.1%,2.0
COc1ccc(C(=O)NCC(c2cccnc2)N2CCN(c3ccccc3F)CC2)cc1OC (stereo not drawn),0.5%,0.0
COC(=O)c1ccc(OCC2c3cc(OC)c(OC)cc3CCN2C(=O)c2cccc(C)c2)cc1 (stereo not drawn),-5.5%,3.8
O=C(Nc1ccc(F)cc1F)C1CCN(S(=O)(=O)c2ccc3[nH]c(=O)ccc3c2)CC1,0.4%,0.5
CCN1CCOC(=O)C1CC(=O)Nc1cc(Cl)ccc1OC (stereo not drawn),-0.9%,0.1
CCOc1ccccc1NC(=O)C(C)Sc1nc(-c2ccccc2)c(C#N)c(=O)[nH]1 (stereo not drawn),1.0%,-0.2
CCOc1ccc(CCNC(=O)c2ccc(Nc3nc4ccccc4n4nnnc34)cc2)cc1OCC,3.7%,-0.2
COc1ccc(/C=C/C(=O)Nc2sc3c(c2C(N)=O)CCC(C)C3)cc1OC (stereo not drawn),10%,2.1
CCCCNC(=O)C1CCC(CNS(=O)(=O)c2ccc(Cl)cc2)CC1 (stereo not drawn),1.3%,2.8
CCOC(=O)C1CCN(C(=O)C2CCN(S(=O)(=O)c3c(C)noc3/C=C/c3ccc(C)cc3)CC2)CC1,0.2%,0.8
COc1cc2cc(CNc3ccccc3)c(=O)n(CC(=O)Nc3cccc(Cl)c3C)c2cc1OC,3.3%,4.5
CCOC(=O)c1c(C)[nH]c(C)c1S(=O)(=O)N1CCCC(C(=O)NCc2ccc(Cl)cc2)C1 (stereo not drawn),0.2%,-1.1
CCc1cccc(C)c1NC(=O)CCS(=O)(=O)c1cc(Br)cc2c1N(C(=O)C1CC1)CC2,1.6%,0.1
COc1ccc(NC(=O)C2CCN(S(=O)(=O)c3ccc4c(c3)CCCC(=O)N4)CC2)cc1Cl,12%,4.3
Cc1cccc(OCC(=O)Nc2nonc2-c2ccc(Br)cc2)c1C,7.0%,0.8
COc1ccc(CCn2c(=O)c3ccccc3n(CC(=O)Nc3cccc(C)c3)c2=O)cc1OC,5.5%,1.0
COc1ccc2sc(N(Cc3cccnc3)C(=O)c3cccs3)nc2c1,-0.3%,3.9
CSc1oc(-c2cccs2)nc1S(=O)(=O)c1ccc(Br)cc1,0.4%,-0.6
COc1ccc(NC(=O)c2cc3c(=O)n(Cc4cccnc4)ccc3nc2C)c(OC)c1,1.1%,0.8
Cc1ccc(-n2nc3c(N4CCC(C(=O)NCCc5ccccc5)CC4)nnc(C)c3c2C)cc1,-0.6%,3.2
O=S(=O)(NCCc1csc(-c2ccc(F)cc2)n1)c1ccc(Cl)cc1,7.5%,1.9
COc1ccc(OC)c(NC(=O)c2cc(CN3CCCC3)on2)c1,-0.8%,0.4
CCOc1ccc(CCNC(=O)c2ccc3nc(N4CCC(C)CC4)sc3c2)cc1OCC,0.1%,1.0
CC(C)(C)c1ccc(C(=O)NC(Cc2c[nH]c3ccccc23)C(=O)OCC(=O)c2ccc(Br)cc2)cc1 (stereo not drawn),-0.4%,0.2
CCOc1ccc(C(=O)Nc2cccc(-c3nc4cc(Cl)cc(Cl)c4o3)c2)cc1,-0.7%,-0.5
CCNc1nc2c(c(=O)[nH]c(=O)n2C)n1CC(O)COc1ccc(Cl)cc1Cl (stereo not drawn),7.9%,1.0
Cc1ccc(CN2CCc3nc(N4CCN(c5ccccc5F)CC4)ncc3C2)cc1C,1.0%,0.5
O=C(Cn1cc(SCc2ccccc2)c2ccccc21)N1CCCCCC1,1.3%,-0.4
CCc1ccc(CN2CCc3nc(N4CCN(c5ccccc5F)CC4)ncc3C2)cc1,3.4%,-0.2
COc1cc(OC)c(NC(=O)C2CCN(S(=O)(=O)c3ccc4c(c3)oc(=O)n4C)CC2)cc1Cl,1.6%,-0.8
CCN1CCN(C(=O)c2cnn(-c3cccc(C)c3)c2C2CCN(C(=O)OC(C)(C)C)CC2)CC1,0.1%,0.4
COc1ccc(N2CCN(C(=O)c3cccn4c(=O)c5ccc(Cl)cc5nc34)CC2)cc1,3.7%,0.4
CCc1ccc(NC(=O)c2ccc3[nH]c(C)c(C)c3c2)cc1,1.6%,0.2
CC1CCc2c(sc(NC(=O)c3cc(-c4cccc(Cl)c4)on3)c2C(N)=O)C1 (stereo not drawn),4.0%,-0.4
COc1ccc(CNC(=O)c2ccc3c(c2)N(Cc2ccccc2F)C(=O)c2ccccc2S3=O)cc1 (stereo not drawn),15%,-0.4
COc1ccc(NC(=O)COCc2cc(-c3cccs3)on2)cc1,3.0%,-1.0
CCOc1ccccc1NC(=O)c1sc(-n2nc(C)c(CCC(C)C)c2C)nc1C,-1.1%,-0.5
COc1cc(OC)c(NC(=O)N2CCc3c([nH]c4ccccc34)C2c2ccccc2F)cc1Cl (stereo not drawn),5.2%,-0.1
CCc1ccccc1NC(=O)c1ccc2c(SCC(=O)O)c3c(nc2c1)CCC3,0.2%,-0.6
COC(=O)c1scc(-c2ccccc2)c1S(=O)(=O)Nc1ccccc1,-0.3%,1.9
CC(Oc1ccccc1F)C(=O)N1CCC(c2nc3ccccc3o2)CC1 (stereo not drawn),-0.7%,2.8
Cc1nc(-n2nc(C)c(Cc3ccc4c(c3)OCO4)c2C)sc1C(=O)Nc1ccc(Cl)cc1,-0.1%,-0.1
CCOc1ccc(-c2nnc(SCC(=O)NCc3ccccc3Cl)o2)cc1,-0.7%,-0.8
CCOC(=O)c1c(C)c(-c2ccccc2)n(CC(=O)NCCc2ccc(C)cc2)c1C,0.8%,-1.1
Cc1cc(C)c2c(c1)c(C)cc1nnc(SCC(=O)c3ccccc3)n12,0.4%,0.3

# The listing continues.
molecule,PINK1 expr mod,TRPML1 agonist
COc1ccc(-n2nc3ccc(NC(=O)c4ccc(-c5cc(Cl)ccc5Cl)o4)cc3n2)cc1,1.0%,0.0
Cc1cccc(C(=O)Nc2sc3c(c2C(=O)NC(C)C)CCCC3)c1,0.6%,3.0
CC(=O)c1cc(-c2ccccc2)n(CC(=O)NCCc2ccc(C)cc2)c1C,0.7%,2.1
CC(=O)c1cc(-c2ccc(F)cc2)n(CC(=O)NCc2ccc(C)cc2)c1C,-0.8%,1.3
CN(C)S(=O)(=O)c1ccc(C(=O)Nc2ccc(-n3nncc3-c3ccccc3)cc2)cc1,2.7%,1.1
COc1ccc(/C=C\c2onc(C)c2S(=O)(=O)N2CCC(C(=O)Nc3cccc(C)c3C)CC2)cc1,2.2%,0.3

# Single entries from the entries so far:
# CCc1ccccc1NC(=O)c1ccc2c(SCC(=O)O)c3c(nc2c1)CCC3 | TRPML1 agonist = -0.6
# O=c1c2cnn(-c3ccc(F)cc3)c2ncn1Cc1ccccc1Cl | PINK1 expr mod = -1.0%
# O=S(=O)(NCCc1csc(-c2ccc(F)cc2)n1)c1ccc(Cl)cc1 | TRPML1 agonist = 1.9
